Screening results from PubChem BioAssay.
Vaccinia pol inh: blocks vaccinia virus processive DNA synthesis; in vitro processive DNA synthesis, absorbance read-out; active compounds read low; some inactives read as strong as hits; normalized absorbance, % (concentration not given with the values); actives 0.94% (n = 46,000); AID 493162;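 active means replicate mean up to 90% and picked by the depositor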;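 further: 100% = median of the test wells of a plate; 100 nL library stock went into each well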
Active calls of the source: *. The list is partial; count on the stated rates, not on these rows.

SMILES	Vaccinia pol inh
O=C(O)C1CC=CCC1C(=O)N1CCOCC1 (stereo unspecified)	93.9
CCC(C)C1NC(=S)N(C2CCCCC2)C1=O (stereo unspecified)	99.2
Cc1ccc(S(=O)(=O)N2Cc3ccccc3CC2C(=O)NCCC(C)C)cc1 (stereo unspecified)	105.3
CC1CC(C)CN(c2ncnc3nc[nH]c23)C1 (stereo unspecified)	102.0
CC1(C)CC(=O)C2=C(C1)Nc1ccc3ccccc3c1C2c1cccnc1 (stereo unspecified)	97.0
Oc1cccc(-c2ccc3ccccc3n2)c1	96.7
CCC(C)n1c(SCc2ccccc2Cl)nc2ccsc2c1=O (stereo unspecified)	91.7
CCN(C(=O)c1cc2cc(OC)ccc2oc1=O)C1CCCCC1	99.0
CCc1c(C)[nH]c(C(=O)OCc2ccccc2)c1C	100.4
COC(=O)CSc1nnc(-c2cccs2)n1-c1ccc(Cl)cc1	108.5
CC(=O)Nc1ccc(N2C(=O)C=CC2=O)cc1	124.4
Cc1cc(S(=O)(=O)NC2CCCCNC2=O)c(C)s1 (stereo unspecified)	100.2
O=C(O)/C=C/C(=O)N(Cc1ccccc1)Cc1ccco1	103.3
N#CCSc1ccc2nnc(-c3ccncc3)n2n1	102.1
Cc1c(C)c(C)c(C(O)c2ccccc2)c(C)c1C (stereo unspecified)	106.4
O=C(O)c1cccc(S(=O)(=O)/N=C2/C=C(NS(=O)(=O)c3ccccc3)C(=O)c3ccccc32)c1	100.0
CC(C)NC(=O)c1cc(C(C)C)on1	100.8
Cc1sc2nc(-c3cccs3)oc(=O)c2c1C	97.4
CN(Cc1ccccc1)C(=O)c1ccc2c(c1)OCO2	97.8
S=C(SN1CCOCC1)N1CCOCC1	99.3
CCOC(=O)c1cc(-c2csc(CS(C)(=O)=O)n2)on1	100.1
O=C(COc1ccc(Cl)cc1)NCc1nnc(SC/C=C/c2ccccc2)o1	102.3
Nc1ccc2c3c(cccc13)C(=O)NC2=O	100.5
COc1ccc(N=C2C(=O)N(c3ccccc3)c3ccccc32)cc1	97.7
CN(C)c1ccc(-n2cccc2/C=N/n2cnnc2)cc1	100.1
O=C(Oc1ccc(F)cc1)/C(=C\c1cccs1)c1ccsc1	101.3
O=N/C(C(=O)c1ccccc1)=C(\O)c1ccccc1	100.3
CCOC(=O)CN1C(=O)S/C(=C/c2ccc3c(c2)n(C)c(=O)n3C)C1=O	90.5
O=C(CSc1nc2ccccc2o1)NCCc1ccccc1	105.1
Cc1[nH]c2ccc(F)cc2c1CCN(Cc1ccco1)C(=S)NC1CCCCC1	103.1

By substructure: the compounds so far with nitrogen in an aromatic ring
SMILES	Vaccinia pol inh
CC1CC(C)CN(c2ncnc3nc[nH]c23)C1 (stereo unspecified)	102.0
CC1(C)CC(=O)C2=C(C1)Nc1ccc3ccccc3c1C2c1cccnc1 (stereo unspecified)	97.0
Oc1cccc(-c2ccc3ccccc3n2)c1	96.7
CCC(C)n1c(SCc2ccccc2Cl)nc2ccsc2c1=O (stereo unspecified)	91.7
CCc1c(C)[nH]c(C(=O)OCc2ccccc2)c1C	100.4
COC(=O)CSc1nnc(-c2cccs2)n1-c1ccc(Cl)cc1	108.5
N#CCSc1ccc2nnc(-c3ccncc3)n2n1	102.1
CC(C)NC(=O)c1cc(C(C)C)on1	100.8
Cc1sc2nc(-c3cccs3)oc(=O)c2c1C	97.4
CCOC(=O)c1cc(-c2csc(CS(C)(=O)=O)n2)on1	100.1
O=C(COc1ccc(Cl)cc1)NCc1nnc(SC/C=C/c2ccccc2)o1	102.3
CN(C)c1ccc(-n2cccc2/C=N/n2cnnc2)cc1	100.1
CCOC(=O)CN1C(=O)S/C(=C/c2ccc3c(c2)n(C)c(=O)n3C)C1=O	90.5
O=C(CSc1nc2ccccc2o1)NCCc1ccccc1	105.1
Cc1[nH]c2ccc(F)cc2c1CCN(Cc1ccco1)C(=S)NC1CCCCC1	103.1

The list continues:
SMILES	Vaccinia pol inh
CCOc1ccc(CCN=C(CC)C2=C(O)CCCC2=O)cc1OCC	98.9
Cc1ccc(C2Nc3ccccc3C(=O)N2CCCN2CCOCC2)cc1 (stereo unspecified)	95.5
Cc1ccccc1C1NC(c2ccccc2C)C(C)C(=O)C1C (stereo unspecified)	99.8
COc1cc(/C=C2/C(=O)ON=C2c2ccccc2)ccc1O	99.9
C1CN=C(NC23CC4CC(CC(C4)C2)C3)C1	100.2
O=C(c1ccco1)N1CCc2sccc2C1c1ccc(OC(F)(F)F)cc1 (stereo unspecified)	99.7
O=S(=O)(c1ccccc1)N1CCNCC1	104.1
O=C(O)c1cccc(N2C(=O)CSC2c2ccccc2)c1 (stereo unspecified)	100.2
C=CCOc1ccc(/C(O)=C2/C(=O)C(=O)N(CC3CCCO3)C23C(=O)N(C)c2ccccc23)cc1 (stereo unspecified)	100.5
COc1ccc(C(=O)NC23CC4CC(CC(C4)C2)C3)cc1	98.8
CCOc1cccc(C2C(C(=O)c3ccc(C)o3)=C(O)C(=O)N2Cc2ccccc2)c1 (stereo unspecified)	78.5
CC(=O)Nc1ccc(N=Cc2ccc(C)cc2)cc1	100.1
Cc1cc(Br)c(NC(=S)NC(=O)C(C)(C)C)c(Br)c1	88.4
CC1(C)CC(=O)C2=C(C1)N(Cc1ccccc1)C(N)=C(C#N)C21CCOCC1	100.5
CC(=O)Nc1ccc(I)cn1	93.8
CC1(C)CC(=O)C2=C(C1)Oc1ccccc1C2CC(=O)c1cccs1 (stereo unspecified)	99.7
Cc1cc(C)n(-c2ccc(C(=O)NCCc3c[nH]c4ccccc34)cc2)n1	90.3
O=C(O)c1ccccc1S(=O)c1ccc(Cl)cc1 (stereo unspecified)	96.0
O=C(OC[C@@H]1CCCN2CCCCC12)c1ccccc1 (stereo partly specified)	100.9
CCC(CO)Nc1nc(C)nc2sc3c(c12)CCCC3 (stereo unspecified)	101.9
O=C(Nc1nc2ccccc2s1)c1cccn(OCc2ccccc2)c1=O	100.9
CCOC(=O)[C@@H]1CSC(c2ccc(OC)c(OC)c2)N1 (stereo partly specified)	106.4
CC1CCN(S(=O)(=O)c2ccc(Cl)s2)CC1	94.0
COc1cccc2c(=O)n(CC(=O)NCc3ccccc3)ccc12	90.0
CSc1c(-c2ccc(Cl)cc2)[nH]c2ccccc12	98.6
S=c1[nH]nc(Cn2nnc3ccccc32)o1	100.2
CCOC(=O)C1=C(N)c2ccccc2CC12CCCCC2	102.8
CC1(C)CC(=O)C2=C(C1)N(c1c(F)cccc1F)C(N)=C(C#N)C2c1ccsc1 (stereo unspecified)	100.4
COC(=O)c1cc2sc(Cl)cc2n1CC(=O)Nc1ccc(C)c(C)c1	87.2
Cc1ccc(Sc2cnc(N)nc2C)cc1	99.1
CCCc1cc(C(=O)Cc2ccccn2)c(O)cc1O	84.6
O=C(Nc1cccc(-c2nnco2)c1)c1ccc(C(F)(F)F)cc1	100.2
O=C(Nc1ccc2sccc2c1)c1ccc(S(=O)(=O)N2CCCC2)cc1	100.7
Cc1oc2c(C)c3oc(=O)c4c(c3cc2c1-c1ccccc1)CCCC4	99.9
CCCCn1c(=O)c(-[n+]2ccccc2)c([O-])c2ccccc21	97.0
COc1cc2c(cc1OC)C1C(C)C(=O)C3=C(CSCC3=O)N1CC2 (stereo unspecified)	93.3
O=C1Nc2ccccc2N(O)N1c1cc(-c2ccccc2Cl)no1	101.4
CCC(NCC(O)Cn1c2ccccc2c2ccccc21)C(=O)O (stereo unspecified)	103.2
CN(C(=O)Cn1nc(C(F)(F)F)c2c1CCCC2)c1ccccc1	106.0
CC(Sc1nc(N)cc(N)n1)C(=O)O (stereo unspecified)	100.1
O=c1c2oc3ccccc3c2[nH]c(=S)n1-c1ccccc1	97.2
COC(=O)Cc1nc(-c2ccc(F)cc2)sc1C	101.1
CCOC(=O)N1CCC(=C(C#N)C(=O)Nc2cc(OC)ccc2OC)CC1	100.2
CCOC(=O)c1cc(NC(=O)Nc2ccc(C)cc2C)c(C)nc1C	98.4
CC1(C)COC(Nc2ccc(Cl)c(Cl)c2)=N1	100.0
COc1cccc2cc(C(=O)c3ccccc3)oc12	95.2
O=C(CCNc1ccc(Cl)c(C(F)(F)F)c1)c1ccccc1	97.6
O=C(CSc1nc2ccccc2n1S(=O)(=O)c1ccc(Cl)cc1)NCCc1ccccc1	99.6
COc1ccc(Cl)cc1NCC(=O)N1CCc2ccccc2C1	86.0
O=C(c1cccc(S(=O)(=O)NCc2ccccc2)c1)N1CCCC1	103.9
Cc1ccccc1NCC(=O)NN	95.4
CCOc1ccc(NC(=O)C2CCN(S(=O)(=O)c3cnc[nH]3)CC2)cc1	94.0
FC(F)(F)c1cccc(OCc2ccc(-c3ncns3)cc2)c1	101.6
CCOC(=O)CCc1ccc(OCc2c(C)c(C)c(C)c(C)c2C)cc1	96.1
O=C(O)c1ccc(N2C(=O)C3C4C=CC(C4)C3C2=O)cc1 (stereo unspecified)	100.8
Cc1cc(C(=O)O)c2cc(F)ccc2n1	101.5
O=C(Nc1ccccc1)N(Cc1nnc2n1CCCCC2)c1ccc(I)cc1	100.6
CC1CCN(Cc2cc(Cl)c3cccnc3c2O)CC1	100.4
O=C(CSc1cccc[n+]1[O-])Nc1ccc(F)c(F)c1	101.4
Cc1ccc(C(=O)CSc2nc(C(F)(F)F)cc(=O)n2-c2ccccc2)cc1	116.0

Additional records follow.
SMILES	Vaccinia pol inh
Cc1nc2c(o1)NC(N)=C(C#N)C2c1cn[nH]c1C (stereo unspecified)	99.3
CC(C)(C)n1nc(-c2ccc(Cl)cc2)c2c(N)ncnc21	98.8
O=C(Nc1ccc(Br)cc1)C(Cc1ccccc1)NS(=O)(=O)c1cccs1 (stereo unspecified)	99.4
O=C(CSCc1ccco1)NC1CCCC1	99.3
CC1CCN(S(=O)(=O)Cc2ccccc2)CC1	100.8
Brc1ccc(-c2ccnc3ncnn23)cc1	96.0
CSC(=NC#N)N1CCC(C(=O)c2ccccc2)CC1	100.6
Cc1ccc(Cn2c(=O)cc(C(=O)NCc3cccs3)c3ccccc32)cc1	100.4
COC(=O)C(C)Oc1nc(C)c(Br)c(OC)n1 (stereo unspecified)	101.8
CC(C)(C)c1ccn[nH]1	110.7
O=C1CC(c2ccccc2)SC(c2ccccc2)C1 (stereo unspecified)	100.2
CCN(CC)S(=O)(=O)c1ccc(C(=O)Nc2ccc3c(c2)OC(C)(C)O3)cc1	101.7
CN1C(=S)SC(c2ccccc2)N(C)C1c1ccccc1 (stereo unspecified)	100.0
CC1CN(c2nc(-c3cccs3)cc(C(F)(F)F)c2C#N)CC(C)O1 (stereo unspecified)	105.5
COC(=O)c1ccc2nsnc2c1	100.1
Cc1nnc(SCc2ccc(C(=O)N3CCOCC3)cc2)s1	99.8
O=C(OCc1nc2ccccc2s1)c1cc(Cl)ccc1Cl	98.9
O=C(Nc1ccc(-c2nc3ccccc3o2)cc1)c1ccc(Oc2ccccc2)cc1	100.0
CC(=O)OCC(=O)c1ccc2c(c1)CCN2C(C)=O	105.2
Cc1cccc(CN2C(=O)/C(=C\c3ccc(C(=O)NCc4cccnc4)cc3)Sc3ccccc32)c1	99.8
Cc1ccc2c(c1)/C(=C/c1ccncc1)c1cc3ccccc3nc1-2	99.7
C=CCNC(=O)c1cc(-c2ccc(C)c(C)c2)nc2ccccc12	101.1
COc1ccc(-c2nnc(NC(=O)/C=C/c3ccccc3)o2)cc1	92.7
Cc1cc(C)c(C)c(S(=O)(=O)N2CCN(c3ncnc4sc5c(c34)CCCC5)CC2)c1C	100.2
CCN1C(=O)N/C(=C/c2ccc(OCc3ccc(C(=O)O)cc3)cc2)C1=O	99.9
C=CCSc1nc2c(cnn2-c2ccc(Cl)cc2)c(=O)[nH]1	96.8
NC(=O)/C=C/c1cccc(C(F)(F)F)c1	98.5
CCN=C(Nc1ccc(Cl)cc1)c1cccnc1	88.7
O=C(NCCCN1CCOCC1)c1ccccc1	100.4
Cc1nc(NCc2ccccn2)c2ccccc2n1	50.6*
COc1ccc(CCNC(=O)CSc2cn(C)c3ccccc23)cc1OC	94.3
Cc1nc2c(c(-c3ccccc3)c1C#N)C(=O)c1ccccc1-2	100.1
O=C(c1ccc(F)cc1)N1C=CC(C(F)(F)F)=NCC1	86.0
COc1cccc(C(=O)Nc2cccc(C)n2)c1	99.8
Cc1nc2ccccc2n1C(=O)/C=C\C(=O)O	99.7
O=C(CSc1nccn1-c1ccccc1)Nc1ccccc1	99.3
COC(=O)c1ccc2c(c1)N=C(C)c1cc(C)ccc1S2	105.5
N#CC(C(=O)c1cc(F)c(F)cc1Cl)c1ccccn1 (stereo unspecified)	100.1
CCOC(=O)/C(C#N)=c1/s/c(=C2\C=Cc3ccccc3N2CC)c(=O)n1CC	101.4
O=C(O)COc1cc(Cl)ccc1O	93.7
O=C(Nc1ccccc1F)c1ccc(S(=O)(=O)N2CCCC2)cc1	92.8
O=C(O)C1Sc2c(sc(=O)n2Cc2ccccc2)C2c3ccccc3OC(=O)C12 (stereo unspecified)	97.8
COC(=O)c1c(C)cc(=O)n2c1[nH]c1ccccc12	92.9
Cc1cc(C(O)(C(F)(F)F)C(F)(F)F)cc(C)c1O	99.7
CC1CCCCC1NC(=O)CN(C)S(=O)(=O)c1cccc2cccnc12 (stereo unspecified)	96.3
COc1cc(COC(=O)N[C@@H](Cc2c[nH]c3ccccc23)C(=O)O)cc(OC)c1	98.0
Nc1ccc(S(=O)C(F)(F)F)cc1 (stereo unspecified)	102.5
Clc1ccc(-c2nnc3n2CCCC3)cc1Cl	93.0
CCOC(=O)c1c(-c2ccccc2Cl)csc1NC(=O)CC	101.2
CCCCN(Cc1cc2cc(OC)ccc2[nH]c1=O)C(=O)c1cccc(Cl)c1	99.5
O=C(Nc1cccn2ncnc12)c1cccc(C(F)(F)F)c1	101.5
O=C1CCCc2c1cc(C(=O)Nc1ccccc1)c(=O)n2-c1ccccc1	100.2
C=CCn1nc2n(c1=O)-c1ccccc1SC2	101.2
COc1ccc(C(=O)NCCc2cc3ccc(C)cc3[nH]c2=O)c(OC)c1	100.5
CC1CCC(NC(=O)Cn2c3ccccc3c3cn[nH]c(=O)c32)CC1 (stereo unspecified)	96.1
CCC(=O)N1c2ccccc2N=C(c2ccccc2)CC1c1ccccc1 (stereo unspecified)	96.4
CSC1=Nc2ccccc2CN1c1ccc(Br)cc1	100.2
CC1(C)CC(NC(=O)c2cccc3ccccc23)CC(C)(C)N1	106.0
